Rce1 inh: blocks yeast Ras-converting enzyme. Q03530. yeast membranes, quenched prenylated peptide cleavage fluorescence. calls only. 0.27% of 290,000 active;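 active = fall in fluorescence gain of 50% or more versus controls, with final raw signal at or below 3038400; inconclusive = same 50% fall but final raw signal above 3038400; inactive = fall in fluorescence gain under 50%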;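 also: plate controls were neutral control wells for no effect and wells lacking membranes for full effect; tested at 10 µM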
Target sequence (Q03530 whole entry, looked up): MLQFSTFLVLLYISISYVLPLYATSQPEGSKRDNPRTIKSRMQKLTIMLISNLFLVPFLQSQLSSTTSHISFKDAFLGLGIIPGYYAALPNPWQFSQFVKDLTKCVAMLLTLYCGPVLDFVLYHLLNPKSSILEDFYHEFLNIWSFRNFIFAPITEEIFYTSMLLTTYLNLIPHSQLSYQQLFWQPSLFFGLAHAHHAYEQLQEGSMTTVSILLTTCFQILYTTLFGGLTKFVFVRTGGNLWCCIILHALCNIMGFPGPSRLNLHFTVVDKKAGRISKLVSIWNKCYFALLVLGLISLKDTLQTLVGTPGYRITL
HIV Env fusion: inhibitors of HIV Env-mediated cell fusion; HeLa-JRFL Env/CEM21 cell fusion, luciferase; inhibition, % at 12.3 µM; 1.1% of 360,000 active; AID 651610;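 active = mean replicate inhibition score of at least 50 and every replicate individually at or above 50; inconclusive = only one of the two criteria met; inactive = mean below 50 and not all replicates reaching 50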;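 also: 0% = plate neutral controls and 100% = maraviroc near 300 nM; one replicate is shown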
UUG fidelity: modulators of start codon recognition fidelity in yeast | 0.13% of 350,000 active | AID 602363 | S. cerevisiae UUG-firefly luciferase reporter, luminescence/redox ratio | activity score, % at 18.7 µM;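 active = replicate mean at a twofold rise or more, about +100% in these data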;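 also: firefly luciferase made from a UUG start codon reports start codon fidelity; reporter light over untreated wells divided by growth signal over untreated wells; some hits fall short of that in this replicate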
CSC inhib: cancer stem cell inhibition; cancer stem cell-like cells viability, luminescence; 1.1% of 300,000 active; inhibition, % at 7.5 µM; AID 2717;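 active = mean at 75% or more and at least half the replicates too; inconclusive = mean and replicates disagree; tested in HMLE shEcad cells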;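 also: 0% = median of negative and 100% = median of positive control wells; the first replicate is given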
PABP polyA inh: blocks human PABP binding to poly(A) RNA; P11940; AID 2014; fluorescence polarization; 1% of 290,000 active; inhibition, % at 35 µM;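 active = 50% or more with normal probe brightness, or confirmed in later tests; inconclusive = above 50% with abnormal brightness, or retests that disagree; inactive = below 50% or failed in later tests; about a fifth of its hits are not listed in these tables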;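 also: calls also rest on retests at 20 µM and on dose response follow-up; controls were probe without protein and protein plus probe with vehicle; some compounds called inactive have numbers as strong as hits; many hits fall short of the cut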
eIF4H FP inh: inhibitors of RNA binding by human eIF4H; Q15056; eIF4H fluorescence polarization binding assay; inhibition, % at 35 µM; 0.94% of 290,000 active;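 active = 50% or more with normal probe brightness, or confirmed in later tests; inconclusive = above 50% with abnormal brightness, or retests that disagree; inactive = below 50% or failed in later tests; about a fifth of its hits are not listed in these tables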;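 also: calls also rest on retests at 20 µM and on dose response follow-up; 0% = protein and probe with vehicle and 100% = probe without protein; strong numbers were not always called active; many hits fall short of the cut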
MT1-MMP act inh: inhibitors of human MT1-MMP activation; P50281; HT1080 RFP-PRO-GFP cells, GFP/RFP ratio fluorescence, overnight; percent of plate control window, DMSO zero; GFP/RFP ratio change, % at 20 µM; 0.061% of 360,000 active; AID 651647;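 active = GFP/RFP ratio change of at least 30% with cell ATP level not reduced by more than half and red fluorescence within 50% of control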; also: strong numbers were not always called active
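Assay system: RFP-PRO-GFP reporter HT1080 cells; read-out basis: GFP/RFP fluorescence ratio; benchmarks: DMSO wells and RFP-L50D-GFP cells; doses: 20 µM single dose, 1% DMSO; schedule: overnight cell settling, then overnight compound exposure, 37 °C, 5% CO2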
eIF4H FP inh retest: second read-out of eIF4H FP inh, no call of its own (marks repeat the call); inhibition, %; compound at 20 µM; confirmation average;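 mean of two retest wells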
PABP polyA inh retest: second read-out of PABP polyA inh, no call of its own (marks repeat the call); inhibition, %; compound at 20 µM; confirmation repeats;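 mean of two retest wells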
MT1-MMP act inh RFP: further read-out of MT1-MMP act inh, marked with its call; RFP signal change, %; measured here: RFP expression control read;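 0 = vehicle wells; hits needed this value within 50% of zero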
An asterisk follows results filed as active; i = inactive; ? = inconclusive; nt = not tested or not shown; + = active, no number; & = joins results of further samples. A portion of the library. The share of hits here may be higher or lower than overall.

SMILES	Rce1 inh	HIV Env fusion	UUG fidelity	CSC inhib	PABP polyA inh	eIF4H FP inh	MT1-MMP act inh	MT1-MMP act inh RFP	others
CC(C)N1CCN(Cc2ccc(Oc3ncccn3)cc2)CC1CCO (centres undefined)	+	-48	nt	-12	-5	-5	0	2
CCOCc1nnc(NC(=O)CCS(=O)(=O)Cc2ccccc2)s1	nt	-11	1	8	0	-18	-2	-3
CCC(=O)N1CCc2cc(S(=O)(=O)CCC(=O)N3CCN(c4ccc(C(C)=O)cc4)CC3)ccc21	i	14	-11	-8	-8	1	-4	-10
CN1CCN(c2ccc(NC(=O)COc3ccccc3)cc2Cl)CC1	i	-8	-32	nt	1	0	-12	-6
O=C(c1cnn2c(C(F)(F)F)cc(-c3ccco3)nc12)N1CCc2ccccc2C1	i	nt	-5	-5	4	9	-11	-2
COc1ccc(OC)c(NC(=O)CSc2nnc(-c3ccco3)n2-c2ccccc2)c1	i	-13	9	-11	-1	-3	5	-1
Cc1nc2sc(C(c3ccccc3)N3CC(C)OC(C)C3)c(O)n2n1 (centres undefined)	i	nt	-7	-8	-4	-5	4	4
Clc1ccc(Oc2cnns2)c(Cl)c1	i	nt	-15	-1	-8	8	3	4
O=[N+]([O-])c1cc2c(cc1/C=N\NS(=O)(=O)c1ccccc1)OCO2	i	nt	-23	-5	14	25	-2	3
COC(=O)c1nn(-c2cccc(C(F)(F)F)c2)c(=O)cc1Sc1ccccn1	i	20	-20	4	-1	0	-1	10
Cc1ccc(-c2csc3ncn(/N=C/N(C)C)c(=O)c23)o1	i	nt	-2	-11	-1	3	7	6
Cc1cc(=S)n(-c2ccccc2)n1C	i	nt	-7	-8	0	-7	-2	1
O=C(CNC(=O)c1cnccn1)Nc1ccc(F)c(F)c1F	i	-1	-9	-4	12	-2	-1	-1
COCCNC(=S)N(CCN(C)C)Cc1cc2cc3c(cc2[nH]c1=O)OCO3	i	1	-7	-15	-6	-5	-2	0
CCOC(=O)CSc1nnc(Cn2c(=O)sc3ccccc32)n1C	i	-13	-26	nt	6	4	5	7
COc1ccc(C(CC(=O)O)NC(=O)COc2ccc(C)cc2)cc1OC (centres undefined)	i	0	0	-2	-4	7	2	3
O=C(c1ccc2c(c1)OCO2)N1CCCc2ccccc21	i	nt	-13	3	-12	-1	1	2
Cc1cccc(CSc2nc3sc(C)c(C)c3c(=O)n2Cc2ccco2)c1	i	-12	-4	3	2	-2	-1	-2
C=CCN1C(=O)/C(=C/c2ccsc2)SC1=S	i	-7	nt	-11	14	17	5	0
Cn1c(=O)c2c(=O)cc(NNC(=O)CC#N)[nH]c2n(C)c1=O	i	3	-10	-17	0	-4	1	1
CN(C)S(=O)(=O)c1ccc(NC(=O)N2CCN(c3ccccc3)CC2)cc1	i	4	1	-1	7	3	14	12
O=C(NC(=S)/C(=C1\CCCCCN1)[N+](=O)[O-])c1ccccc1	nt	nt	-40	0	nt	nt	-2	0
Cc1nnc(SCC(=O)Nc2cccc(S(N)(=O)=O)c2)n1-c1ccccc1	i	-5	-9	-17	-2	-6	-2	-4
CC(NC(=O)Nc1ccc2c(c1)OCO2)c1ccncc1 (centres undefined)	i	-2	nt	nt	-5	7	4	5
CCOc1ccc(N2CC(C(=O)NCc3ccc4c(c3)OCO4)CC2=O)cc1 (centres undefined)	i	-5	-21	-13	-2	-9	1	-1
CCCCN1C(=N)N([C@@H](C)CN2CCC[C@H]2CN2C(N)=NC[C@H]2C(C)C)C[C@H]1[C@H](C)CC	nt	-9	1	3	nt	nt	1	5
S=c1[nH]nc(-c2ccco2)n1/N=C/c1ccccc1	i	9	nt	-7	-6	-5	0	0
COC(=O)c1c(C)c[nH]c1C	i	nt	-2	3	2	16	-1	7
COc1ccc(CCNC(=O)CSc2nnc(C(C)N(C)C)n2Cc2ccccc2)cc1OC (centres undefined)	i	-2	-33	-11	-12	-2	4	0
COc1ccc(C(N)=S)cc1	i	-10	nt	-8	10	-3	5	6
OCc1ccccc1OCCCN1CCC(Cc2ccccc2)CC1	i	5	-16	5	3	20	0	-2
Cc1ccc(N/N=C/c2cccnc2)cc1	i	-29	-51	?	-12	5	-3	-2
CCOC(=O)C1(Cc2ccccc2C)CCCN(C(=O)CCn2nccc2C)C1 (centres undefined)	i	10	nt	-3	7	-4	3	-3
CCc1ccc(NC(=S)Nc2cc(OC)c(NC(=O)C(C)C)cc2OC)cc1	i	-4	nt	-10	7	11	2	3
CC(C)CN(C(=O)C1CCCC1)C1CCS(=O)(=O)C1 (centres undefined)	i	1	nt	nt	nt	nt	-7	-3
CCN(CC)S(=O)(=O)c1cc(NC(=O)C(=O)c2c(-c3ccccc3)cc3ccccn23)ccc1C	i	77*	-14	35	-8	-6	-2	-20
CCOc1cc(-c2nnc(NC(=O)c3ccco3)o2)cc(OCC)c1OCC	i	nt	-29	-5	nt	nt	4	0
COc1cccc(NC(=O)Cn2c(=O)n(CC3CCCO3)c(=O)c3ccccc32)c1 (centres undefined)	nt	4	1	5	-5	2	2	2
CC(=O)NS(=O)(=O)c1ccc(NC(=S)NC(=O)C2CCC2)cc1	i	6	15	nt	1	-14	-3	1
CN(CC(=O)Nc1cccc(F)c1)CC(=O)Nc1cccc(S(=O)(=O)N2CCCCC2)c1	nt	9	-14	46	nt	nt	5	-11
CC(C)(C)c1ccc(/C=N/NC(=O)Cc2c[nH]c3ccccc23)cc1	i	-68	-7	72	8	6	3	2
O=C(O)CNC(=O)c1ccc(NS(=O)(=O)c2ccc3ccccc3c2)cc1	i	-38	-4	nt	12	2	1	1
CNc1nc(C)c(C(C)=O)cc1C#N	i	nt	-15	-7	-4	-9	-4	11
O=S(=O)(NCC(Nc1ccc(Cl)cc1)c1ccccc1)c1ccc(Cl)cc1 (centres undefined)	i	45	-14	52	0	-7	-8	-13
CNS(=O)(=O)c1cccc(C(=O)OCC(=O)c2c(N)n(Cc3ccccc3)c(=O)n(C)c2=O)c1	nt	-3	-7	nt	nt	nt	2	-4
CCCCN(C=O)c1c(CC)nc2c(OCC3CCCCC3)cccn12	nt	16	-12	nt	nt	nt	-3	-6
C[C@@H]1CN([C@H](C)CO)C(=O)c2c(c3ccccc3n2C)-c2ccccc2CO[C@H]1CN(C)Cc1cccc(C(=O)O)c1	nt	15	6	nt	nt	nt	3	4
O=C(COC(=O)/C=C/c1ccc(F)cc1)NCc1ccc2c(c1)OCO2	nt	0	-3	-1	nt	nt	1	2
Cc1cc(=O)[nH]c(SCC(=O)OCc2ccccc2)c1C#N	i	-1	nt	-4	-3	-13	3	6
CCCCOc1ccc(/C=N/NC(=S)Nc2cccc(C)c2C)cc1	i	-45	-32	0	-8	2	2	-4
Cc1ccccc1S(=O)(=O)N(C)C[C@H]1OCc2cn(nn2)CCCC(=O)N([C@H](C)CO)C[C@@H]1C	nt	?	-12&-15	nt	nt	nt	5	6
COc1ccccc1-c1cc(C(F)(F)F)nc(NCc2cccs2)n1	i	nt	-16	0	-6	4	-8	-11
CCCCN1C(=O)C(CC(=O)NCCN2CCOCC2)CC(C(=O)N(CC)CC)=C1C (centres undefined)	nt	1	-7	nt	nt	nt	0	3
O=C(Nc1ccc(Cl)c(Cl)c1)c1csc(-c2ccccc2)n1	i	12	-12	-12	-10	-2	-1	3
Cc1cccc(NS(=O)(=O)c2cccc(C(=O)N3CCN(S(=O)(=O)c4ccccc4)CC3)c2)c1	i	9	nt	1	nt	nt	-7	-4
O=C(c1cccc(C(F)(F)F)c1)N1CCC(O)(CS(=O)(=O)Cc2ccc(Cl)cc2)CC1	i	29	10	-11	-6	7	7	-4
CCc1oc(C(=O)O)cc1COC	i	-33	nt	-16	38	24	-1	-1
Cc1cc(C)n(C(=O)c2ccc([N+](=O)[O-])cc2Cl)n1	i	-6	-13	12	3	6	3	3
COC(=O)CCc1c(C)nc(N)[nH]c1=O	i	nt	-16	nt	3	-9	5	9
Cc1cccc(C)c1NC(=O)CN1C(=O)S/C(=C\c2cccn2-c2cccc(C(=O)O)c2)C1=O	i	nt	-12	2	36*	80*	-2	5	eIF4H FP inh retest=56*;PABP polyA inh retest=56*

Going on with the list:
SMILES	Rce1 inh	HIV Env fusion	UUG fidelity	CSC inhib	PABP polyA inh	eIF4H FP inh	MT1-MMP act inh	MT1-MMP act inh RFP	others
Cc1cc(/C=C2/SC(=S)N(c3cccc(C(F)(F)F)c3)C2=O)c(C)n1-c1cccnc1	i	nt	-5	53	nt	nt	-49	-27
Cc1nn(C)c(C)c1CN(C)C(=O)C1(C)CC1(Br)Br (centres undefined)	i	-2	nt	2	5	1	4	1
O=c1[nH]c(=S)c2ncn(-c3ccccc3)c2[nH]1	i	1	-9	-7	18	-10	-5	5
O=C(CSCc1ccc(Cl)cc1)Nc1ccc(S(=O)(=O)N2CCCCCC2)cc1	i	9	1	43	-11	-9	-7	-15
COc1ccc(Nc2nc3cc(-c4sccc4C)sc3c(=O)n2C)cc1OC	nt	-182	-18	nt	nt	nt	4	-6
COc1cc(/C=C/CN2CCC(CO)(CC3CCCCO3)CC2)ccc1O (centres undefined)	i	-2	nt	nt	-11	-1	0	0
CC[n+]1c(C)n(-c2ccccc2)c2ccc(C(=O)OC)cc21	i	5	nt	-3	69*	1	-1	-1
CC(=O)Nc1ccc(S(=O)(=O)N2CCN(C(=O)N3CCCCCC3)CC2)cc1	i	nt	0	-7	-4	1	-2	0
Cc1cc(NC(=O)COC(=O)[C@H](C)NC(=O)c2ccccc2)no1	i	nt	-1	10	-1	6	-2	-1
C=C(Cl)COc1ccc2c(C)cc(=O)oc2c1	i	nt	3	5	5	-14	1	2
CCc1ccc(-c2ccc(C(=O)C(F)(F)F)[nH]2)cc1	i	-158	-13	6	-6	-7	6	-2
CC1=C(C(=O)N(C)C)CC(CC(=O)NC2CC2)C(=O)N1Cc1ccccc1 (centres undefined)	nt	37	2	nt	nt	nt	0	4
CC(=O)N1N=C(c2cccc(NS(C)(=O)=O)c2)CC1c1cccs1 (centres undefined)	i	-9	11	-10	44	9	-2	-3
COc1ccc(CCNC(=O)CCNS(=O)(=O)c2cccc(Cl)c2)cc1OC	i	-1	nt	-1	4	4	-2	1
Cc1cc(-c2ccn[nH]2)c(C)s1	i	-9	-3	7	9	-8	4	3
O=C(NN(c1ccccc1)c1ccccc1)c1ccc([N+](=O)[O-])o1	i	-10	-1	-3	8	0	7	-1
Nc1n[nH]c(N)c1N=Nc1cccc(F)c1	i	1	-9	4	-1	2	2	-2
CCN(c1ccccc1)S(=O)(=O)c1ccc(Cl)c(NC(=O)CN2CCCCCC2)c1	i	50	-4	?	-1	12	0	-16
Cc1ccc(OCCSc2nc3ccccc3n2CC(=O)O)cc1C	i	-1	-12	-9	10	-3	0	3
O=C(c1cccs1)N1CCN(c2ccccc2)CC1	i	13	-1	-12	-6	-6	0	4
CCC(c1nnc(SCC(=O)Nc2c(F)cccc2F)n1Cc1ccccc1)N(C)C (centres undefined)	i	-3	-12	2	-10	-12	-3	0

Two entries drawn at random from the list so far:
SMILES	Rce1 inh	HIV Env fusion	UUG fidelity	CSC inhib	PABP polyA inh	eIF4H FP inh	MT1-MMP act inh	MT1-MMP act inh RFP	others
Cc1cc(C)n(C(=O)c2ccc([N+](=O)[O-])cc2Cl)n1	i	-6	-13	12	3	6	3	3
O=C(CSCc1ccc(Cl)cc1)Nc1ccc(S(=O)(=O)N2CCCCCC2)cc1	i	9	1	43	-11	-9	-7	-15

Screening data from PubChem.
